# High-throughput results deposited in PubChem BioAssay by several laboratories.
# Beta2AR agonist = human beta-2 adrenergic receptor agonism by FAP; response, % (concentration not given with the values); AID 504454; P07550; Am2.2-beta2AR cells, FAP receptor internalization, flow cytometry; reference of the scale not given here; hit rate 0.43% among 340,000;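 active = response above a set limit, near 3 SD of response in nonfluorescent compounds, cut at about 42% in these data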;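 note: stock transfer was 100 nL into about 11 µL; a reference agonist was the positive control; negative values mostly stem from fluorescent compounds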
# A1 inh = inhibitors of the anti-apoptotic protein A1, read as caspase activation | hit rate 0.066% among 330,000 | caspase activation, % (concentration not given with the values) | MEF A1-2A-BIM cells, Caspase-Glo 3/7 luminescence, 3 h; percent of clofoctol response, vehicle zero;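 active = over half of replicate activation scores above 10%, or exactly half above 10 with the replicate mean above 10; inconclusive = replicate mean below 10 yet half the replicates above 10; inactive = over half of replicates below 10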;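 note: wells of about 30 µL received 50 nL stock; many hits fall short of the cut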
# T cruzi inh = blocks replication of Trypanosoma cruzi; hit rate 1.4% among 300,000; AID 1885; T. cruzi beta-gal in NIH3T3, luminescence, 90 h; inhibition, % (no concentration beside the values);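 active = mean inhibition across valid replicates above about 55%, limit read from the data; inconclusive = mean below that limit but half or more replicates reach it; inactive = mean below it, under half of replicates reach it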;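 note: signal also drops with host cell toxicity which is not excluded here; 0% = plate median of DMSO wells and 100% = zero luminescence signal; higher percent means less beta-gal luminescence so fewer parasites; stock transfer was 50 nL into about 50 µL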
# Calb FLC = C. albicans growth modulation with fluconazole; C. albicans CaCi-2 (fluconazole-resistant clinical isolate) + fluconazole, Alamar Blue growth, 48 h; growth inhibition, % (no concentration beside the values); hit rate 0.57% among 300,000;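 active = most replicates above 75%; inconclusive = exactly half above 75%; inactive = most below 75%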;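 note: all wells also contain fluconazole at 8 µg/ml as a sub-toxic cotreatment; 0% = median of DMSO wells and 100% = median of geldanamycin control wells; wells of about 8 µL received 7.5 nL stock; the first replicate is given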
# LANA-H2A inh = blocks KSHV LANA binding to histone H2A/H2B; Q9QR71; cell-free LANA-H2A/H2B peptide, fluorescence polarization; hit rate 0.6% among 320,000; inhibition, % (test concentration not listed); in the data active = inhibition mostly above about 10%, no sharp cut-off; inactive = mostly below about 6.7%;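 note: stock transfer was 7.5 nL into about 10 µL; 0% = median of vehicle wells and 100% = median of positive control wells; one replicate is shown; the record names a cut of 25% in any replicate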
# Target sequence (Q9QR71 whole entry, looked up): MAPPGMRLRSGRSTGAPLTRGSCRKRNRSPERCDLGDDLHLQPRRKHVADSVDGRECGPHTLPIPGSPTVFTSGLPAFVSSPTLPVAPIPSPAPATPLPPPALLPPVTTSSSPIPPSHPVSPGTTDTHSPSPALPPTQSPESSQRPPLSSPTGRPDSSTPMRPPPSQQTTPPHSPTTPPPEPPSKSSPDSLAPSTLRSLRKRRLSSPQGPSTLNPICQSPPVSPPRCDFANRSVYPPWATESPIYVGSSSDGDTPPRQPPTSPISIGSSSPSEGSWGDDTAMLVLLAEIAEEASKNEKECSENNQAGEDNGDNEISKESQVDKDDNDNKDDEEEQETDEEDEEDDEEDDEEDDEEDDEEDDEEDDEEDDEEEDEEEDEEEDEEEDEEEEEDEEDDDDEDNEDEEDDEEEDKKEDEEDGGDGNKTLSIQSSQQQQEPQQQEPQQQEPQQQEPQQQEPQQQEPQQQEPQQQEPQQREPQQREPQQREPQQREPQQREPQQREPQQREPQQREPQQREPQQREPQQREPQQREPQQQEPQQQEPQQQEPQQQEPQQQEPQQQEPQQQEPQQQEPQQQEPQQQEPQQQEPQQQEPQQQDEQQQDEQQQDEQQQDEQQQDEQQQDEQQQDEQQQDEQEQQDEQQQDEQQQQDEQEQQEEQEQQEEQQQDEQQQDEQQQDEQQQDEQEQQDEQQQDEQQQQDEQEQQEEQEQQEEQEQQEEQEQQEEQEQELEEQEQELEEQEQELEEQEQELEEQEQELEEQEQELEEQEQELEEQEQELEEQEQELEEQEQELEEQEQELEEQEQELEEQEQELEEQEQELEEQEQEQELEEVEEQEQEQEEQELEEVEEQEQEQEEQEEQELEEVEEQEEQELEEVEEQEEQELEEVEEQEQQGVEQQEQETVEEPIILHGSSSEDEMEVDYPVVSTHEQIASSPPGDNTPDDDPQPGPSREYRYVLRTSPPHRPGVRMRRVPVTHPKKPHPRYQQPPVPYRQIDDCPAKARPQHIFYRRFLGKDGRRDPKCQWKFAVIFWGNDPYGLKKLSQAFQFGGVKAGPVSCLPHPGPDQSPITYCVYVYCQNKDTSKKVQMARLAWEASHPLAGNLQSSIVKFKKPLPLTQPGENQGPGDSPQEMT
# UCH37 DUB inh = human UCH37 deubiquitinating enzyme inhibition; inhibition, % (test concentration not listed); hit rate 0.33% among 330,000; purified proteasome/UCH37, Ub-AMC cleavage fluorescence; AID 588478;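 active = mean of two replicates above 20%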;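 note: 0% = compound-free wells with enzyme and 100% = wells lacking proteasome; stock transfer was 100 nL into about 20 µL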
#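 Material: human UCH37 enzyme supplied as purified proteasome complex. Measure: % inhibition of Ub-AMC cleavage fluorescence. Medium: pH 7.4 Tris-HCl (50 mM) with ovalbumin, ATP-MgCl2, DTT. Times: 30 min preincubation with enzyme, 25 min cleavage at room temperature. Detection: AMC fluorescence intensity at 355/460 nm.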
# RanGTP-Impb inh = inhibitors of RanGTP-importin-beta interaction, primary screen, biochemical, FRET, CFP-Ran, YFP-importin-beta, homogeneous; hit rate 1.1% among 300,000; inhibition, % (no concentration beside the values); AID 2216; cell-free CFP-Ran/YFP-importin-beta FRET ratio;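 active = most replicates above 15%; inconclusive = exactly half above 15%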;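 note: 0% = DMSO wells and 100% = Ran loaded with GDP instead of GTP; wells of about 40 µL received 100 nL stock; the first replicate is given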
# Beta cell apopt = beta cell apoptosis inhibition; protection from apoptosis, % (no concentration beside the values); INS-1E cytokine-induced death, ATP luminescence, 48 h; percent of positive-control rescue, neutral wells zero; AID 435005; hit rate 0.8% among 300,000;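 active = all replicates at 75% or more, or half of them and the mean; inconclusive = half reach 75% but not the mean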;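 note: 0% = cytokine-treated negative control wells and 100% = positive control rescue; higher means more ATP so stronger rescue from cytokine killing; wells of about 40 µL received 100 nL stock; the first replicate is given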
# * hit, by the source's call; ? = inconclusive; / = not tested or not shown.
SMILES,Beta2AR agonist,A1 inh,T cruzi inh,Calb FLC,LANA-H2A inh,UCH37 DUB inh,RanGTP-Impb inh,Beta cell apopt
Cc1c(C(=O)Nc2ccccn2)oc2ccccc12,-10.8,1.0,-14.7,1.0,-3.3,1.7,?,5.1
Cc1ncc(CO)c(/C=N/Nc2cccc(Cl)n2)c1O,-15.4,0.2,-11.7,-17.6,1.6,/,2.9,3.6
CC(C(=O)NC1=NCCS1)(C(F)(F)F)C(F)(F)F,-0.9,1.7,-15.1,-4.5,3.4,-0.1,5.2,-1.0
Cc1cccc(C)c1NC(=O)c1sccc1SCC#N,0.8,2.2,-4.1,3.4,-5.0,2.6,2.9,-1.2
COc1ccc(C)cc1-n1c(=O)c2ccccc2c2ccccc2c1=O,-1.8,/,-10.0,10.6,/,0.4,0.5,/
O=C1C=C(c2ccc(-c3ccccc3)c(F)c2)C[C@@H](c2ccc(F)cc2)C1,1.9,-0.2,/,/,3.1,0.2,/,8.0
CN(C(=O)CN1C(=O)S/C(=C\c2ccc(Cl)cc2)C1=O)C1CCS(=O)(=O)C1 (stereo not given),-4.2,0.8,-9.4,0.9,11.3*,8.3,7.4,0.1
O=C1OC(c2ccc(F)cc2)=N/C1=C\C=C/c1ccccc1,6.6,0.7,-9.3,-2.2,0.1,2.6,0.7,-3.7
Cc1c(Br)ccc(NC(=O)COc2ccccc2C(N)=O)c1C,-6.1,-0.4,-3.2,19.7,2.5,1.6,1.3,-2.4
O=C1N(Cc2cccnc2)C[C@@H]2C[C@@H](c3ccc(C(F)(F)F)cc3)N3CCC[C@@]123,-3.0,0.2,-3.8,-29.0,-2.1,1.0,0.4,-3.1
CC1=CCC(C(=O)O)(C(=O)N/N=C/c2cccs2)C(c2ccc(F)cc2)C1 (stereo not given),3.6,-1.5,-0.1,-0.4,1.2,/,-0.6,3.6
COc1ccc2cc(C)c3nnc(SCC(=O)Nc4nc(-c5ccccc5)cs4)n3c2c1,9.7,?,0.4,4.0,0.3,-0.6,-1.1,-9.8
Cc1ccc(C(=O)N/N=C\c2ccc(-c3ccc(Cl)c(Cl)c3)o2)cn1,11.3,0.3,5.9,-5.5,1.0,/,-3.7,8.2
COc1ccccc1C(=O)Nc1ccccc1N1CCN(S(C)(=O)=O)CC1,-6.7,-0.1,10.3,-1.5,1.9,0.8,-3.3,-4.5
CCOc1ccccc1N=CC1=C(O)CC(c2ccccc2)CC1=O (stereo not given),7.5,-0.2,-8.7,0.8,-0.3,-189.3,-2.8,-4.4
CN(CC(=O)NC1CCCCCC1)S(=O)(=O)c1cnc[nH]1,6.9,-0.2,-8.7,13.4,2.1,3.9,-0.7,-3.2
CCOc1cc(/C=N\NC(=O)OC)ccc1OC(=O)c1ccco1,-2.9,1.0,-3.4,-5.2,-2.4,/,-5.0,/
Cc1nc(NC(=S)NC(=O)c2cncc(Br)c2)ccc1Br,-7.2,0.5,0.0,?,-0.9,3.7,0.1,-6.1
CC(C)CNc1nc(N)c([N+](=O)[O-])c(N2CCCCCC2)n1,2.1,0.0,31.0,-7.9,1.9,5.1,-5.5,7.6
Cn1c(-c2ccccc2Br)n[nH]c1=S,-0.1,1.3,4.6,2.3,2.1,-6.6,1.0,-7.2
O=[N+]([O-])c1ccc(C2Oc3ccccc3C3CC(c4ccccc4)=NN32)s1 (stereo not given),/,-3.9,/,/,-0.6,8.3,/,21.7
Cc1ccc(S(=O)(=O)N/N=C\c2cc([N+](=O)[O-])ccc2Cl)cc1,-5.7,-0.7,-18.9,1.9,0.6,/,-3.9,-0.2
O=C(NCc1cccs1)C1CCC(CNS(=O)(=O)c2ccc(Br)s2)CC1 (stereo not given),0.2,1.0,2.7,1.2,-0.3,2.3,1.1,-8.5
CC(=O)c1ccccc1NC(=O)CSc1nnc(Cc2csc(C)n2)o1,-4.7,-0.4,-1.3,-5.2,-1.3,-0.2,7.0,-1.7
Cc1nc(SCc2ccccc2)c([N+](=O)[O-])[nH]1,-1.6,-2.2,-9.5,1.4,/,4.6,4.7,-2.4

# The list continues:
SMILES,Beta2AR agonist,A1 inh,T cruzi inh,Calb FLC,LANA-H2A inh,UCH37 DUB inh,RanGTP-Impb inh,Beta cell apopt
CCC(c1nnnn1C(C)(C)C)N1CCN(c2cc(Cl)ccc2C)CC1 (stereo not given),3.8,-0.1,10.2,10.2,-2.4,0.5,0.8,-2.8
O=C(/C=C/c1ccc(OC2CSC2)cc1)c1ccc(Cl)cc1,-4.0,0.1,19.7,-6.0,-1.8,3.4,0.1,-2.9
COc1ccc(OC)c(C(c2nnnn2Cc2ccco2)N2CCN(C)CC2)c1 (stereo not given),10.1,-0.4,-14.8,-17.7,1.4,2.6,0.4,-2.8
CC(C)(Oc1ccc(Cl)cc1)C(=O)NC1CCCCC1,-5.4,0.0,6.9,-5.4,-3.2,2.8,5.3,1.1
CC1(C)CC(=O)c2sc(NC(=O)CN3CCCCC3)nc2C1,3.5,0.3,-15.0,-23.2,-0.6,3.1,-0.3,2.7
CCCCn1c(=O)[nH]c(=O)c2c1nc(COc1ccc(C#N)cc1)n2CCC,-9.0,0.0,6.2,1.7,-0.9,-2.9,-5.1,6.3
O=S(=O)(Nn1c(O)c(C=C2N=c3ccccc3=N2)sc1=S)c1ccccc1,9.6,-1.1,-8.4,7.5,-1.2,/,5.0,1.8
N=C1C(c2nc3ccccc3c(=O)[nH]2)=C(O)CN1CCO,1.8,0.0,-12.4,-5.6,1.5,-19.4,4.0,2.4
CC(C)C(C(=O)NCc1ccco1)N(CC1CCCO1)C(=O)CNS(=O)(=O)c1ccc(F)cc1 (stereo not given),0.0,0.1,2.7,-4.1,-2.6,-0.7,-0.4,-1.3
COCCN1CCn2c(nc3cc(NC(=O)Cn4nc(C)c5ccccc5c4=O)ccc32)C1,-1.7,0.1,/,10.0,2.2,-10.8,?,-8.1
Cc1nc2nc(SCC(=O)N3CCOCC3)nn2c(C)c1Cc1c(F)cccc1Cl,-11.0,0.9,30.7,?,-0.1,0.9,-1.4,11.4
C#CCn1c(=NC(=O)c2ccc(S(=O)(=O)N3CCCc4ccccc43)cc2)sc2cc(S(N)(=O)=O)ccc21,4.7,0.6,55.5*,-2.0,-1.3,-0.8,?,0.8
O=C(NC12CC3CC(CC(C3)C1)C2)C1CC(=O)N(c2ccccc2)C1 (stereo not given),-2.6,0.9,4.5,-13.6,-6.1,3.0,-8.9,0.1
CC1CCC(Nc2nnnn2-c2ccccc2)CC1 (stereo not given),-4.1,0.9,1.4,4.6,-6.7,2.7,1.1,2.4
CC(C)(C)C(=O)CNS(=O)(=O)c1ccc(S(=O)(=O)NC2CC2)cc1,-1.6,3.2,0.1,-1.9,0.8,3.2,2.5,-1.3
COc1ccccc1-c1cn[nH]c1-c1ccc(OCC(=O)NN)cc1O,-2.1,0.7,0.7,2.2,-3.6,0.8,2.5,-0.2
COc1ccc(-n2c(=S)[nH]c3ccccc3c2=S)cc1,10.6,0.7,-8.2,-6.8,-2.3,3.2,2.2,1.5
CCOc1ccccc1C(=O)OCC(=O)NCc1ccc2c(c1)OCO2,-0.1,-1.0,/,/,11.8,2.1,/,1.7
CCOc1cc(/C=C/c2nc3ccccc3c(=O)[nH]2)ccc1O,3.4,0.3,6.9,-0.4,1.6,-20.0,-0.2,7.7
COc1cc(CN(C)Cc2cc(=O)n3ccsc3n2)ccc1OC(F)F,-1.6,-0.7,-2.5,-3.3,3.2,2.2,?,5.6
CCOc1ccccc1N1CCN(C(=O)C2CSC3(C)CCC(=O)N23)CC1 (stereo not given),-2.4,-0.7,/,/,-3.8,0.1,/,-0.9
COc1ccccc1NC(=O)CSc1nnc(C)s1,-2.0,/,-7.9,2.0,/,0.5,-1.1,/
C=CCOC(=O)C1=C(C)N(C)C(=O)NC1c1cc2c(cc1Br)OCO2 (stereo not given),4.3,-0.3,8.4,1.1,-1.6,0.4,0.4,-0.8
O=C1c2ccccc2C(Nc2ccc3c(c2)OCCO3)N1Cc1ccc2c(c1)OCO2 (stereo not given),8.6,-0.2,1.4,-8.1,-2.8,2.3,-4.0,6.5
O=C(Cn1cnc(S(=O)(=O)N2CCCCC2)c1)N1CCN(c2ccc([N+](=O)[O-])cc2)CC1,2.4,-0.1,2.9,16.4,8.2,14.1,2.1,-1.1

# Next part:
SMILES,Beta2AR agonist,A1 inh,T cruzi inh,Calb FLC,LANA-H2A inh,UCH37 DUB inh,RanGTP-Impb inh,Beta cell apopt
CCCC(=O)Nc1cc(-c2nc3ncccc3o2)ccc1C,4.6,0.7,-10.8,-9.2,-1.8,-5.4,-0.6,-6.0
CC(=O)c1cnc(Nc2ccccc2)s1,-5.9,-0.9,-9.7,13.8,1.6,4.7,0.2,1.2
Cc1ccc(NC(=S)N2CCN(C(=O)C3CCCO3)CC2)cc1 (stereo not given),-0.2,0.8,-9.5,0.3,0.3,1.1,0.7,/
S=C(NCCCN1CCOCC1)N(Cc1ccccc1)Cc1ccccc1,0.1,0.4,17.9,0.5,0.5,1.6,1.7,2.0
CN(C)c1ccc(NC(=O)Nc2ccc3snnc3c2)cc1,6.0,0.7,-14.5,2.7,1.4,-3.4,3.3,6.2
O=C(C[n+]1ccccc1)c1ccc(-c2ccccc2)cc1,9.1,-0.3,5.7,20.9,7.1,2.8,1.5,-0.2
CCOC(=O)c1cnc2ccc(OC)cc2c1Nc1ccc2c(c1)OCCO2,5.5,0.9,26.8,-3.1,0.8,1.5,0.7,2.6
COc1ccc(C(=O)Cn2nnc(-c3ccccc3NC(=O)C(F)(F)F)n2)cc1,8.2,-1.2,-12.4,9.3,7.3,-1.5,5.8,-0.3
Cc1nn(-c2ccccc2)c(N2CCCC2)c1/C=N/n1cnc2scc(-c3ccccc3)c2c1=O,13.2,-0.2,36.2,?,2.6,/,?,17.5
CC(C)(C)c1ccc(C2=CSC3=NCCN23)cc1,-8.3,0.1,-1.7,0.7,-1.3,3.9,5.0,8.6
CCOc1cc(NC(=O)c2ccco2)c(OCC)cc1NC(=O)Cc1ccc(OC)c(OC)c1,-3.5,-0.6,-7.6,0.8,2.1,-91.0,8.6,1.0
O=C(Cn1c(=O)n(CC(=O)N2CCCCC2)c(=O)c2sccc21)NCc1ccccc1,3.6,0.7,1.5,-5.4,3.3,2.9,1.7,-4.3
COc1ccccc1CNc1ccc(N2CCCCC2)cc1,-13.1,-1.1,65.0*,-22.0,-3.4,-0.6,?,6.8
CC(C)NC(=O)CSc1nnc(-c2ccc(S(=O)(=O)N3CCCC3)cc2)n1CC1CCCO1 (stereo not given),-7.9,1.2,-5.5,-1.7,-0.3,4.1,-0.8,2.9
COc1ccccc1C1Nc2ccccc2NC2=C1C(=O)CC(C)(C)C2 (stereo not given),-1.9,0.4,12.7,2.8,1.2,5.1,1.8,0.9
CCOc1ccc(CN(C)C(=O)Cc2c[nH]c3ccccc23)cc1,-5.0,1.1,-1.4,-2.1,-1.8,3.0,1.1,-6.3
CCc1noc(C)c1C(=O)Nc1cc(S(=O)(=O)N2CCOCC2)ccc1OC(C)C,5.7,-0.3,2.9,0.6,1.4,3.4,0.9,1.5
